RN4220 kill: S. aureus RN4220 growth inhibition; 330,000 tested, 0.33% active; inhibition, % (no concentration beside the values); OD600, 16 h;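 active = z-score of -3 or lower and OD600 up to 0.18 on both plates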;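 note: plate controls were untreated cells for no effect and reference antibiotic for full effect; stock transfer was 100 nL into about 80 µL; one replicate is shown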
Mtb hypoxia inh: reduces hypoxia-regulated biosensor signal in M. tuberculosis; fluorescence inhibition, % (no concentration beside the values); 300,000 tested, 0.1% active; M. tuberculosis hypoxia-regulated fluorescent reporter, fluorescence;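 active = 35 to 45% if threefold the growth effect, above 45% if 1.5-fold the growth effect; inactive = the rest, general growth blockers included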;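 note: wells of about 50 µL received 100 nL stock; 0% = vehicle wells and 100% = reference inhibitor wells; whole bacteria with a GFP reporter of the hypoxia response; strong numbers were not always called active; many hits fall short of the cut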
PrP 5UTR inh: inhibition of PrP 5' UTR reporter expression; AID 488862; cell-based PrP 5' UTR mRNA reporter, plate reader; inhibition, % (concentration not given with the values); 340,000 tested, 0.35% active;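 active = every replicate at 50% or more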;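 note: 0 = median of the neutral control wells; tested in H4 reporter cells; numbers are from one replicate; inactives centre near -14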
Autofluor counter: counter-screen for toxin protease inhibitors: compound fluorescence. compound autofluorescence counterscreen, microsphere flow cytometry; stronger effect = higher value. fluorescence intensity (concentration not given with the values). 360,000 tested, 3.1% active. AID 624483;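 active = at least 3 SD above the mean of all compounds, about 16000 in these data; inconclusive = too few beads counted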;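 note: 100 nL of 1 mM stock went into each well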
BJeLR lethal: BJeLR cell viability loss | AID 1554 | 300,000 tested, 0.17% active | BJeLR (HRASV12) viability, CellTiter-Glo ATP luminescence, 48 h; reference of the scale not given here | inhibition, % (no concentration beside the values);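 active = replicate mean above 50%; inconclusive = above 50% but judged a plate artefact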;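 note: 50 nL library stock added to about 25 µL; numbers are from one replicate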
ugtP null kill: compounds lethal to S. aureus RN4220 ugtP deletion mutant | growth inhibition, % (concentration not given with the values) | 330,000 tested, 0.54% active | OD600 growth, 16 h; some inactives read as strong as hits | AID 1259309;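 active = z-score under -3 and OD600 up to 0.15 on both plates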;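 note: plate controls were untreated wells for no effect and antibiotic for full effect; wells of about 80 µL received 100 nL stock; the first replicate is given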
Mtb hypoxia inh growth: also measured in Mtb hypoxia inh; calls as there; growth inhibition, %; measured here: M. tuberculosis growth (absorbance);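 0% = vehicle and 100% = reference antibiotic; read after six days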
The depositor's hits bear a star; ? = inconclusive; · = not tested or not shown; & = joins results of further samples.

Preview:
SMILES	RN4220 kill	Mtb hypoxia inh	Mtb hypoxia inh growth	PrP 5UTR inh	Autofluor counter	BJeLR lethal	ugtP null kill
N#C/C(=C\c1cn(Cc2ccccc2F)c2ccccc12)C(=O)NCc1ccco1	0.3	-4.4	1.3	-16.5	2148	-8.0	2.4
COc1ccccc1CCNC(=O)C(=O)NCC1OCCN1S(=O)(=O)c1cc(F)ccc1F (stereo not drawn)	-14.6	11.4	7.1	-20.7	6914	3.0	-2.5

Results, from the first entry:
SMILES	RN4220 kill	Mtb hypoxia inh	Mtb hypoxia inh growth	PrP 5UTR inh	Autofluor counter	BJeLR lethal	ugtP null kill
N#C/C(=C\c1cn(Cc2ccccc2F)c2ccccc12)C(=O)NCc1ccco1	0.3	-4.4	1.3	-16.5	2148	-8.0	2.4
COc1ccccc1CCNC(=O)C(=O)NCC1OCCN1S(=O)(=O)c1cc(F)ccc1F (stereo not drawn)	-14.6	11.4	7.1	-20.7	6914	3.0	-2.5
O=C(Cn1ncn2nc(-c3ccccc3)cc2c1=O)NCc1ccccn1	-2.3	-10.2	-3.6	-8.7	5056	-4.4	-4.3
Cc1ccc(C(c2nnnn2C2CCCC2)N2CCN(c3nc4ccccc4s3)CC2)cc1 (stereo not drawn)	0.8	·	·	-12.9	2374	-11.1	1.3
Cc1sc2ncnc(SCC(=O)NC3CCCC3)c2c1C	-0.3	5.8	6.6	-2.5	4274	0.3	-4.4
CCC(CC)Nc1ccc(C(CC(N)=O)NC(=O)Cc2ccc(Br)cc2)cc1[N+](=O)[O-] (stereo not drawn)	10.5	10.5	-6.6	-24.7	3335	4.9	4.6
Cc1cc(NC(=O)CN2CCCCC2C)no1 (stereo not drawn)	2.4	6.5	8.5	-7.2	3907	3.6	0.9
O=S(=O)(c1cccc(C(F)(F)F)c1)N1CCC(O)(c2cccnc2)CC1	5.6	·	·	-5.4	3477	5.3	7.8
Cn1c(SCC(=O)NC2CCCCC2)nnc1-c1ccccn1	1.3	-5.9	-4.4	-5.9	4481	-5.0	4.0
CC(=O)N(CN1C(=O)c2ccccc2C1=O)c1cccc(C)c1	7.2	6.7	3.9	-22.0	3723	-6.2	3.1
COc1cccc(N(C(=O)Cn2nnc(-c3cccs3)n2)C(C(=O)NC2CCCCC2)c2ccncc2)c1 (stereo not drawn)	5.3	12.1	-0.5	-9.5	10060	-1.3	-2.7
O=C(O)CCCC(=O)Nc1ccc(-n2ccc(C(F)(F)F)n2)cc1	2.3	5.1	-4.5	3.3	3427	-2.3	6.1
CCC(C)NC(=O)CCC(=O)NNc1nc2ccccc2c2nc(C)nn12 (stereo not drawn)	3.8	4.9	-1.5	-14.7	9361	9.8	-1.7
Clc1ccc(-c2nnc(C3CCCCC3)o2)cc1	9.4	·	·	-38.0	3944	-6.9	-12.0
CCN(CC(=O)Nc1ccc(NC(C)=O)cc1)C(=O)CSCc1c(C)noc1C	0.8	6.4	-5.9	-20.1	·	1.2	1.0

Four entries from above, with values under each structure.
Values run as follows: RN4220 kill	Mtb hypoxia inh	Mtb hypoxia inh growth	PrP 5UTR inh	Autofluor counter	BJeLR lethal	ugtP null kill
O=C(Cn1ncn2nc(-c3ccccc3)cc2c1=O)NCc1ccccn1
 : -2.3	-10.2	-3.6	-8.7	5056	-4.4	-4.3
CCC(CC)Nc1ccc(C(CC(N)=O)NC(=O)Cc2ccc(Br)cc2)cc1[N+](=O)[O-] (stereo not drawn)
 : 10.5	10.5	-6.6	-24.7	3335	4.9	4.6
O=S(=O)(c1cccc(C(F)(F)F)c1)N1CCC(O)(c2cccnc2)CC1
 : 5.6	·	·	-5.4	3477	5.3	7.8
CC(=O)N(CN1C(=O)c2ccccc2C1=O)c1cccc(C)c1
 : 7.2	6.7	3.9	-22.0	3723	-6.2	3.1

Next part
SMILES	RN4220 kill	Mtb hypoxia inh	Mtb hypoxia inh growth	PrP 5UTR inh	Autofluor counter	BJeLR lethal	ugtP null kill
COc1ccc(OC)c(C(c2nnnn2C(C)(C)C)N2CCc3ccccc3C2)c1 (stereo not drawn)	4.5	·	·	-11.7	2677	-2.4	0.8
CCN1CCN(CCCNC(=O)CS(=O)(=O)Cc2nc(-c3ccccc3C)oc2C)CC1	0.5	4.8	0.6	-11.1	4966	5.6	4.0
CC(Nc1nc(-c2ccc(F)cc2)cs1)c1nc2cc(Cl)c(N3CCCCC3)cc2n1CCOCCO (stereo not drawn)	-13.6	-1.1	7.7	-2.8	2962	-2.7	-9.6
CCC(C)c1ccc(O)c(N)c1 (stereo not drawn)	3.8	1.2	-2.2	-13.9	16286*	-1.4	6.4
COc1ccccc1CC(=O)NNS(=O)(=O)c1ccc([N+](=O)[O-])cc1	10.6	7.4	-1.1	-17.8	4321	-0.6	0.0
Cc1ccc(S(=O)(=O)c2nc(S(C)(=O)=O)sc2N2CCOCC2)cc1	2.0	-6.2	2.9	-5.7	3818	-3.1	2.3
Cc1ccc(C(=O)Nc2cccc(C(O)c3ccccc3)c2)cc1 (stereo not drawn)	-2.4	-0.6	7.8	-13.0	3836	-6.0	-1.9
CC(C)C(c1nnnn1Cc1ccccc1)N(CCCO)Cc1cc2cc3c(cc2[nH]c1=O)OCO3 (stereo not drawn)	4.5	·	·	8.3	2207	-6.3	4.0
Cc1ccc(CNc2cc(C(=O)O)ccc2C)s1	·	·	·	-1.7	4159	-6.5	·
Cc1cc(C)n(CCC(=O)N/N=C/c2ccc(O)cc2)n1	·	·	·	-25.6	2215	-3.3	·
c1ccc(C2=NNC(=NCc3ccc4c(c3)OCO4)SC2)cc1	0.3	-2.9	6.5	1.1	9817	-17.1	-8.5
COc1ccc(S(=O)(=O)N2CC(C(=O)O)Oc3ccc(Cl)cc32)cc1 (stereo not drawn)	3.3	5.5	7.0	-5.5	3856	2.1	21.0
CN1/C(=C/C(=O)CSc2ccccc2C(=O)O)C(C)(C)c2ccccc21	5.5	1.9	3.1	·	4826	-6.3	6.5
CC1CN(C(C)CO)C(=O)c2cc(NC(=O)Nc3ccc(F)cc3)ccc2OC1CN(C)Cc1ccc(Oc2ccccc2)cc1 (stereo not drawn)	-10.8	1.5	3.5	·	·	·	-7.3
O=C(O)c1ccc(-c2nnc(-c3ccccc3)o2)cc1	4.7	5.7	19.5	-35.0	4095	28.0	2.5
Cc1c(N2C(=O)CSC23C(=O)Nc2ccccc23)c(=O)n(-c2ccccc2)n1C (stereo not drawn)	3.2	-6.7	7.4	-16.1	9376	8.6	-3.4
CCOc1ccc(Cc2n[nH]c(=S)n2Cc2ccccc2)cc1	5.3	4.9	11.1	-22.1	2217	-1.3	11.5
C/C(=C\C(=O)N1CCc2ccccc21)C(=O)O	1.0	5.0	14.2	33.0	8424	3.6	1.6
Cc1cc([N+](=O)[O-])nn1CC(=O)N(C)Cc1ccccc1	7.2	9.1	-1.5	-25.6	4714	-2.8	7.9
Cc1noc(C)c1C(=O)Nc1nc2ccc(S(C)(=O)=O)cc2s1	2.1	3.4	5.4	-17.1	3817	2.6	1.4
O=C(NC(=S)Nc1cccnc1)c1ccccc1	0.6	-6.9	1.1	-3.3	5090	1.1	9.2
Fc1ccc(N2CN(Cc3cccnc3)CNC2=S)cc1	4.9	8.6	4.0	·	·	-12.7	6.7
Cc1ccc(NS(=O)(=O)c2cc(C(=O)OCC(=O)NCC3CCCO3)ccc2C)cc1 (stereo not drawn)	1.5	-0.5	-1.2	-3.6	4812	3.2	-0.5
CS(=O)(=O)Cc1ccc(C(=O)N2CCN(C(=O)c3cccs3)CC2)cc1	1.7	4.8	-2.1	-37.7	6639	·	-0.4
O=c1ccc(Cc2ccc(Cl)cc2)n[nH]1	4.6	-0.1	-2.4	-3.7	2022	2.4	-4.0
CC(Oc1ccc(F)cc1)C(O)CCN(C)C (stereo not drawn)	9.0	5.6	5.9	73.7*	4458	1.1	22.9
O=C(NC1CC1)C1=C[C@@H](c2ccc(C(F)(F)F)cc2)C[C@@H](OCc2ccc(CO)cc2)O1	·	·	·	-25.5	4160	0.6	·
CCCS(=O)(=O)N1CCC(Cc2ccc(OC)cc2)(C(=O)OCC)CC1	-1.7	7.9	3.9	-27.0	4472	8.8	-1.7
CCOC(=O)c1c(-c2ccc(OC)cc2)nc2nonc2c1N	4.3	4.7	7.2	-14.5	9314	0.2	1.5
CCN(Cc1cc2ccccc2[nH]c1=O)S(=O)(=O)c1ccc(OC)cc1	5.3	9.1	5.2	-1.5	5267	6.5	1.8
Cc1ccc(S(=O)(=O)NC(=O)N2CCN(Cc3c(F)cccc3Cl)CC2)cc1	1.0	10.3	5.0	-14.6	5264	1.5	-1.9
Cn1ccnc1SCC(=O)Nc1cc(C(F)(F)F)ccc1N1CCOCC1	2.6	1.1	7.2	-11.7	16282*	-4.5	1.0
O=C(Oc1ccc2c(=O)c(Oc3ccc4ccccc4c3)coc2c1)c1cccnc1	5.8	-13.1	-5.5	-6.4	10216	8.6	0.2
CC1CCN(C(=O)CCNS(=O)(=O)c2ccc3c(c2)c(=O)n(C)c(=O)n3C)CC1	2.2	5.9	-0.8	-89.2	6181	5.0	5.0
CC(C)(C)OC(=O)NNC(=O)c1cccs1	-0.7	-13.8	0.6	-30.1	4771	-3.6	-4.2
Cc1cccc(Nc2nc(-c3ccc(F)cc3)cs2)n1	-0.5	9.2	-1.1	-85.4	4181	-4.2	6.8
CC(=O)N1CCCc2cc(S(=O)(=O)CCC(=O)N3CCN(c4ccccc4)CC3)ccc21	8.1	-8.4	-0.4	-36.7	5897	-5.2	-3.7
CCOC(=O)C1(O)CC(C)=NN1C(=O)c1cccc(Cl)c1 (stereo not drawn)	2.9	3.4	-3.5	2.3	2359	0.9	1.5
CCOC(=O)N1CCN(c2nc(C)cc(C(F)(F)F)n2)CC1	-0.4	9.4	18.6	-19.4	4209	-0.1	-7.1
COCCNC(=O)c1nc2ccccc2s1	-0.4	-2.9	-0.5	-19.5	2689	3.2	5.7
COc1ccc(CNC(=O)C/C(C)=N/NC(=O)COc2ccc(C)cc2Br)cc1	·	·	·	-5.0	4586	18.0	·
O=C(Oc1ccc2ccc(OC(=O)N3CCOCC3)cc2c1)N1CCOCC1	0.1	25.4	-17.3	-15.4	2337	6.8	10.9
COC(=O)/C(=C\c1ccc(O)cc1)c1nc2ccccc2[nH]1	3.0	5.1	8.5	-41.0	4375	6.6	3.2
CCNC(=O)N1CCC(n2nccc2NC(=O)CCOc2ccccc2)CC1	2.6	13.0	5.7	-13.8	5450	6.0	2.8
CCC(=O)N1CCN(c2nc(CC)nc3sc4c(c23)CCCC4)CC1	5.4	14.9	-0.6	-6.6	3924	0.2	11.9
O=C(NCCc1ccccc1)C1CCCN1S(=O)(=O)c1ccc(F)cc1 (stereo not drawn)	1.4	-2.0	7.0	-18.5	10404	-8.4	-0.1
C=CCN1C(=O)C2(OCCCO2)c2cccc(Cl)c21	5.7	2.8	7.5	-20.8	4202	-2.1	7.5
COc1ccccc1CN1CC(C(=O)N2CCOCC2)CCC1=O (stereo not drawn)	-1.1	2.9	4.9	-4.4	6273	-6.3	0.9
CC(Sc1nnc(-c2ccccc2F)n1C1CC1)C(=O)NC(N)=O (stereo not drawn)	-2.3	-11.5	-15.8	-5.6	5825	-15.5	-0.4
O=c1nc(/C=C/c2cccn2-c2ccc([N+](=O)[O-])cc2)cc(C(F)(F)F)[nH]1	·	·	·	-11.2	2104	4.2	·
CN1C(=O)N(C)C2CC1N(C)C(=O)N2C	6.8	2.2	2.8	-30.8	10310	-14.4	5.1
Cc1ccc(NC(=O)[C@@H]2CCC(=O)N2C2OC(=O)c3ccccc32)cc1Cl (stereo partly drawn)	4.8	·	·	-12.3	5369	3.6	-9.7
O=C1Nc2ccc(Cl)cc2/C1=C/C1CC=CCC1 (stereo not drawn)	29.5	18.7	12.9	-24.2	2278	6.6	6.6
Cc1ccccc1-n1c(O)c(C(c2ccncc2)c2c(O)n(-c3ccccc3C)c(=O)[nH]c2=O)c(=O)[nH]c1=O	2.4&2.3	-5.7&1.0	2.1&-4.1	-7.5&-6.8	4767	-1.5&-5.2	7.5&13.5
Cc1ccc(OCCn2c(C)c(/C=N/n3cnnc3)c3ccccc32)cc1	·	·	·	-5.1	3679	-10.2	·
O=C(NNC(=O)c1cccc(Br)c1)C(=O)N1CCCCC1	2.9	2.5	1.2	-43.3	2457	-4.9	-6.5
Cc1ccc(NS(=O)(=O)c2ccc(C(=O)N3CCN(S(=O)(=O)c4ccccc4)CC3)cc2)cc1	0.3	-2.5	0.0	5.6	?	10.6	2.4
COc1cc(C=NNC(=O)/C(=C\c2ccc3c(c2)OCO3)NC(=O)c2ccccc2)ccc1O	2.8	4.4	7.5	·	·	·	-5.2
